# E coli growth: blocks Escherichia coli growth. OD600 absorbance (no concentration beside the values). OD600, 23 h; stronger effect = lower value. 330,000 tested, 0.21% active;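 active = OD600 absorbance below the run mean of sample wells minus 3.6 SD, in any replicate, cut at about 0.56 in these data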;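 note: stock transfer was 300 nL into about 60 µL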
# FGF22 binding: shifts melting point of recombinant human FGF22. calls only at 9.99 µM. 340,000 tested, 1.5% active. recombinant FGF22 thermal shift, SYPRO orange fluorescence; percent of sucrose octasulfate shift, DMSO zero. Q9HCT0;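 active = melting point raised past a set limit in the mean and every replicate; inconclusive = no clear call; three in four hits are not shown here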
# Target sequence (Q9HCT0 whole entry, looked up): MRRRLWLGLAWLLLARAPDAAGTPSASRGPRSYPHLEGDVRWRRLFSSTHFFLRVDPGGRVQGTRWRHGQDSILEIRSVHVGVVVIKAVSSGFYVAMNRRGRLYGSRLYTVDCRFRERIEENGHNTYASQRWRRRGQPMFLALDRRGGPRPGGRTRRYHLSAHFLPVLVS
# Vif TR-FRET: HIV-1 Vif–A3G interaction blockers – biochemical, TR-FRET, GST-Vif 1-94, biotin-A3G peptide, dose response retest, primary screen (AID 1117319); TR-FRET GST-Vif / biotin-A3G peptide binding; higher % means a stronger effect; test concentration not given here; strong numbers were not always called active; one-dose inhibition, %; IC50 in µM for titrated hits; 260,000 tested, 0.57% active;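 active = above the screen mean plus three standard deviations and confirmed in dose response; inconclusive = results disagree or hit not tested in dose response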;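 note: Vif residues 1-94 fused to GST binding biotinylated APOBEC3G peptide 110-148; 0% = full assay without inhibitor and 100% = GST in place of GST-Vif; retest series ran down from 100 µM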
# Ecoli rRNA inh: selective bacterial rRNA inhibition in E. coli. E. coli WT GFP vs humanized-ribosome RFP mutants, fluorescence, 24 h; stronger effect = lower value; DMSO median 0, no signal -100. GFP signal change (wild-type ribosome), % (test concentration not listed). 350,000 tested, 1.6% active. AID 720706;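 active = significant combined selectivity score with lowered wild-type GFP, culture density cut under 30%, mutant RFP and density less affected; inactive = any of these conditions unmet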; note: one replicate is shown; some compounds called inactive have numbers as strong as hits
# AF4-AF9 inh: MLL-AF4/AF9 protein interaction inhibition; P42568; AlphaScreen, biotin-AF4 peptide binding to FLAG-AF9; inhibition, % at 10 µM; 350,000 tested, 0.47% active;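 active = every replicate reaching a set inhibition limit, whatever the replicate mean, cut at about 25% in these data; inconclusive = mean inhibition reaches that limit but some replicates miss it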;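 note: 0% = plate neutral control median and 100% = total signal loss; the record names both 10 and 1 µM as test concentration; the first replicate is given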
# ALR inh: inhibitors of human sulfhydryl oxidase ALR. inhibition, % (test concentration not listed). P55789. AID 485317. 290,000 tested, 3.8% active. purified ALR, DTT oxidation, H2O2 HRP-luminol luminescence;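 active = mean and each replicate at 75% or more; inconclusive = only one of the two met; inactive = neither met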;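 note: stock transfer was 7.5 nL into about 7.5 µL; 0% = neutral wells and 100% = wells with inactivated enzyme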
# Target sequence (P55789 whole entry, looked up): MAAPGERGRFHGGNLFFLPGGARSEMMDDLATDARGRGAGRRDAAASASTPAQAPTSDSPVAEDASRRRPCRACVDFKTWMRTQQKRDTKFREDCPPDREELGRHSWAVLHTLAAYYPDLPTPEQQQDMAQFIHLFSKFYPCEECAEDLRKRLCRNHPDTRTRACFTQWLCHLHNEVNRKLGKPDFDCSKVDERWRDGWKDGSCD
# HNF4A DNA FP: change in binding of human HNF4 alpha to DNA. HNF4a-FITC DNA binding, fluorescence polarization, 1 h. 360,000 tested, 0.3% active. activity change, % at 10 µM. AID 1224865. P41235; in the data active = activity change above about 30%, passing the limit was not always enough;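 note: controls were the assay level and a saturating level of protein; the project sought stronger binding though the title names inhibitors; some compounds called inactive have numbers as strong as hits; positive values seem to mean higher polarization but the record does not say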
# Target sequence (P41235 whole entry, looked up): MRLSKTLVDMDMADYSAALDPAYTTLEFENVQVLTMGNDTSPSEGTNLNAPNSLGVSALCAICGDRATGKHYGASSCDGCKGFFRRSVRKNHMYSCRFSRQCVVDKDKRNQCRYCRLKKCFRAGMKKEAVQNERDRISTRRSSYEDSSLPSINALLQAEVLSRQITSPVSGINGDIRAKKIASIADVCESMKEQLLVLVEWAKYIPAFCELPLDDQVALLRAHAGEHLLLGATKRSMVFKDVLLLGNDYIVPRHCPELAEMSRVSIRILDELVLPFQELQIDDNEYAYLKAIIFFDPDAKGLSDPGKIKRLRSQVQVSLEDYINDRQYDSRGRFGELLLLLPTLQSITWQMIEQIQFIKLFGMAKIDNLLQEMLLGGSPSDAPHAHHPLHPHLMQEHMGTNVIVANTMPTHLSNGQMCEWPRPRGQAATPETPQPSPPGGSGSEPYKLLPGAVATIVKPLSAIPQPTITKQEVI
# Ecoli rRNA inh OD600: recorded beside Ecoli rRNA inh, whose call it bears; OD600 change, %; measured here: OD600 growth;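 optical density of the mix in the first replicate; 0 = DMSO median and -100 = no signal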
# Ecoli rRNA inh RFP: recorded beside Ecoli rRNA inh, whose call it bears; RFP signal change, %; measured here: RFP humanized mutant strains;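 first replicate; 0 = DMSO median and -100 = no signal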
# The depositor's hits bear a star; i = inactive; ? = inconclusive; . = not tested or not shown.
# A first look, five compounds:
smiles	E coli growth	FGF22 binding	Vif TR-FRET	Ecoli rRNA inh	Ecoli rRNA inh OD600	Ecoli rRNA inh RFP	AF4-AF9 inh	ALR inh	HNF4A DNA FP
COc1ncnc2c1ncn2CCCN(CCCc1ccccc1)CCCn1cnc2c(OC)ncnc21	.	i	-5.6%	.	.	.	-1.6	.	-4.0
C[C@@H]1CN([C@H](C)CO)C(=O)Cc2cc(NS(=O)(=O)c3ccccc3)ccc2O[C@H]1CN(C)Cc1ccc(C(=O)O)cc1	.	i	.	-2.1	-0.4	-0.6	-1.9	.	.
N/C(=C/C(=O)c1ccccc1O)C(F)(F)F	0.713	.	.	.	.	.	.	-0.2	-1.1
CCOC(=O)c1ccc(CNC(=O)Cn2nnc(-c3ccc(C)cc3)n2)o1	0.716	.	2.1%	.	.	.	.	-10.4	1.3
COc1ccc(/C=N/n2cnnc2SCCO)cc1OC	.	.	1.8%	.	.	.	.	-15.2	1.2

# Results (from the top)
smiles	E coli growth	FGF22 binding	Vif TR-FRET	Ecoli rRNA inh	Ecoli rRNA inh OD600	Ecoli rRNA inh RFP	AF4-AF9 inh	ALR inh	HNF4A DNA FP
COc1ncnc2c1ncn2CCCN(CCCc1ccccc1)CCCn1cnc2c(OC)ncnc21	.	i	-5.6%	.	.	.	-1.6	.	-4.0
C[C@@H]1CN([C@H](C)CO)C(=O)Cc2cc(NS(=O)(=O)c3ccccc3)ccc2O[C@H]1CN(C)Cc1ccc(C(=O)O)cc1	.	i	.	-2.1	-0.4	-0.6	-1.9	.	.
N/C(=C/C(=O)c1ccccc1O)C(F)(F)F	0.713	.	.	.	.	.	.	-0.2	-1.1
CCOC(=O)c1ccc(CNC(=O)Cn2nnc(-c3ccc(C)cc3)n2)o1	0.716	.	2.1%	.	.	.	.	-10.4	1.3
COc1ccc(/C=N/n2cnnc2SCCO)cc1OC	.	.	1.8%	.	.	.	.	-15.2	1.2
O=C(Nc1cccc(S(=O)(=O)Nc2ccccc2F)c1)c1ccco1	0.688	i	2.9%	.	.	.	0.8	-1.8	5.6
O=C(O)c1ccc(-c2cccc(-c3nn4c(=O)cc(N5CCNCC5)nc4s3)c2)cc1	.	i	.	2.0	-3.1	20.2	-1.9	.	3.3
O=C(Nc1sc2c(c1C(=O)O)CCCC2)c1ccccc1Cl	0.7	i	-1.7%	-30.8	-28.8	-9.2	-4.3	40.6	-3.8
C/C(=C\c1ccccc1)CN1CCC(C(=O)N2CCC(C)CC2)CC1	0.676	.	-3.6%	.	.	.	.	0.8	0.9
CCn1c(-c2nn(-c3ccc(C)cc3)ccc2=O)n[nH]c1=S	0.668	i	-6.7%	22.1	2.8	1.0	-6.8	.	0.5
Cc1coc2c1c(C)cc1oc(=O)c(CC(=O)NCC(=O)O)c(C)c12	0.681	i	-3.5%	-5.6	-6.9	3.6	-9.3	-10.8	2.7
CC(=O)N1CCN(Cc2nc3cc(NC(=O)C4CCCCC4)ccc3n2C)CC1	0.711	.	-6.9%	.	.	.	.	.	-5.9
COc1ccc(Br)cc1C(=O)Nc1cccc(C)c1	0.784	.	6.5%	.	.	.	.	0.0	-0.9
CN(C)c1ccc(C=Cc2nccc3ccccc23)cc1	.	i	.	93.2	-69.7	52.8	2.1	.	-53.8
CC(=O)Nc1ccc(NC(=O)c2ccccc2N(C)S(=O)(=O)c2ccccc2)cc1	0.673	i	-1.3%	-1.7	2.6	-3.8	-3.2	.	0.5
CCn1cc(C(=O)N[C@H](C(=O)NCCCOC)C(C)C)c(=O)c2cc3c(cc21)OCO3	0.661	i	6.8%	10.8	13.3	0.1	-3.5	-11.2	1.7
CC1=C(C)CC(C(=O)NCc2c(F)cccc2Cl)C(C(=O)O)C1 (centres undefined)	0.713	.	-1.3%	.	.	.	.	-1.7	-0.1
COc1ccc(Nc2cc3n(c(=O)n2)CCc2cc(OC)c(OC)cc2-3)c(C)c1	0.694	i	2.7%	2.1	8.3	-0.6	-14.0	-1.6	2.2
COc1ccc(S(=O)(=O)Nc2ccccn2)cc1	0.671	i	.	28.2	21.5	3.9	0.1	-11.8	1.0
CC(C)NC(=O)N(C)C[C@@H]1Oc2ccc(NC(=O)Cc3ccccc3)cc2C(=O)N([C@@H](C)CO)C[C@H]1C	.	i	.	0.2	6.2	-0.8	-1.7	.	.
O=C(c1cn(-c2ccccc2)nc1-c1ccc(F)cc1)N1CCCCC1	0.681	i	-0.3%	-12.4	-5.7	9.8	0.1	-4.0	5.0
NC(=O)CC(NC(=O)Cc1ccc(Br)cc1)c1ccc(NC2CCN(Cc3ccccc3)CC2)c([N+](=O)[O-])c1 (centres undefined)	0.711	i	.	-3.9	-18.9	-2.7	-13.6	.	-3.5
O=C(Cn1cc2c(n1)CCCC2)NCCCN1CCN(c2ccccc2F)CC1	0.765	i	0.9%	4.3	4.8	0.1	5.1	-0.9	4.8
Cc1cccc2c(C(=O)N3CCN(C(=O)c4ccco4)CC3)cc(-c3cccc(Br)c3)nc12	0.72	i	25.1%	7.5	3.4	15.3	19.3	3.9	4.0
CCOc1ccc(CN(C(=O)c2oc3ccccc3c2C)C2CCS(=O)(=O)C2)cc1 (centres undefined)	0.726	.	?	.	.	.	.	-12.4	-0.3
COc1ccc(NC(=O)CN(C)C(=O)c2ccc(N3CCCCC3)c([N+](=O)[O-])c2)cc1	0.64	i	0.4%	-8.7	-8.0	1.7	0.2	.	0.0
COc1ccc(C)cc1S(=O)(=O)Nc1cccc(Cl)c1	0.763	.	-5.5%	.	.	.	.	17.9	1.9
CCCCC(NS(=O)(=O)c1ccc(C)cc1)C(=O)Oc1ccc2c3c(c(=O)oc2c1)CCC3 (centres undefined)	0.683	i	-3.1%	6.4	-0.3	-0.9	-5.8	-6.7	-1.7
O=C(c1cccc(S(=O)(=O)Nc2cccc(C(F)(F)F)c2)c1)N1CCCCC1	0.672	i	5.3%	-13.9	-20.9	-2.5	1.3	.	-0.8
C#CCOCCOCCOCCNc1nc(N2CCN(C(=O)[C@H](CCC(=O)O)n3cc([C@@H](N)[C@H](C)CC)nn3)CC2)nc(N2CCN(C(=O)[C@H](CCCCN)n3cc([C@@H](N)CC(N)=O)nn3)CC2)n1	0.697	i	-8.8%	23.7	15.9	4.2	2.7	.	1.1

# More records follow.
# Values run as follows: E coli growth	FGF22 binding	Vif TR-FRET	Ecoli rRNA inh	Ecoli rRNA inh OD600	Ecoli rRNA inh RFP	AF4-AF9 inh	ALR inh	HNF4A DNA FP
CNC(=O)c1ccccc1S(=O)c1ccccc1COC(C)=O (centres undefined)
  0.673	i	-2.2%	13.9	5.7	3.7	5.3	-10.5	-3.9
COc1cccc(C#Cc2ccc([C@@H]3[C@@H](CO)N(C(=O)C4CCC4)[C@H]3C#N)cc2)c1
  .	i	.	2.4	-4.9	-0.4	1.8	.	.
O=C(C[C@@H]1CC[C@@H]2[C@H](COC[C@@H](O)CN2S(=O)(=O)c2ccc(F)cc2)O1)NCC1CCCCC1
  .	i	.	1.3	13.8	4.7	?	.	.
Cc1ccc(S(=O)(=O)N2CCN(S(=O)(=O)c3ccc(C)cc3)C2)cc1
  0.701	.	1.5%	.	.	.	.	-6.3	-1.5
O=C(N/N=C/c1sc(=O)n(Cc2ccc(Br)cc2)c1Cl)c1ccco1
  .	i	2.0%	-7.8	1.6	-1.6	-0.1	1.8	21.1
Cc1cccn2c(=O)nc(SCC(=O)Nc3cccc4ccccc34)nc12
  0.643	i	-4.3%	0.7	-1.3	-0.2	-0.8	85.2*	2.3
CC1Cc2cc(S(=O)(=O)N3CCC(C(N)=O)CC3)ccc2N1C(=O)C1CC1 (centres undefined)
  0.698	i	.	-2.0	4.9	-1.1	2.9	-8.2	1.3
CCCSc1cc(Cl)nc(N)n1
  0.648	i	10.1%	5.1	2.8	-4.1	5.0	-2.4	5.1
C[C@H]1CN([C@@H](C)CO)C(=O)c2cc(/C=C/c3ccccc3)cnc2O[C@H]1CN(C)C(=O)C1CCC1
  .	i	.	-3.9	9.3	1.3	3.3	.	.
O=C(Nc1ccc2cn[nH]c2c1)c1ccccc1F
  0.66	.	-16.5%	.	.	.	.	-22.3	-2.8
O=C(Nc1ccc2c(c1)[C@H]1C[C@@H](CC(=O)N3CCCCC3)O[C@H](CO)[C@H]1O2)c1ccc2c(c1)OCO2
  .	i	.	-6.5	-10.8	1.1	2.7	.	.
COc1ccc(S(=O)(=O)Nc2ccc3c(c2)CC(=O)N([C@H](C)CO)C[C@H](C)[C@H](CN(C)Cc2ccc(Cl)c(Cl)c2)O3)cc1
  .	i	.	-1.6	11.6	-1.5	2.6	.	.
CN(CC(=O)N1CCN(c2cccc(Cl)c2)CC1)S(=O)(=O)c1cnc[nH]1
  0.694	.	16.1%	.	.	.	.	6.4	-12.0
O=C(C[C@H]1CC[C@@H]2[C@H](COC[C@@H](O)CN2C(=O)Cc2ccccc2)O1)NC1Cc2ccccc2C1
  .	i	.	0.7	5.9	1.4	1.3	.	.
C=C1CCN([C@@H](Cc2ccccc2)C(=O)NCc2ccccc2)S(=O)(=O)c2ccccc21
  .	i	.	-7.9	-14.2	-3.0	2.6	-2.5	3.3

# Arranged by the number under E coli growth (largest number first): some entries from above.
compound	E coli growth
O=C(Nc1ccc2cn[nH]c2c1)c1ccccc1F	0.66
CCCSc1cc(Cl)nc(N)n1	0.648
Cc1cccn2c(=O)nc(SCC(=O)Nc3cccc4ccccc34)nc12	0.643

# (more compounds)
# Values run as follows: E coli growth	FGF22 binding	Vif TR-FRET	Ecoli rRNA inh	Ecoli rRNA inh OD600	Ecoli rRNA inh RFP	AF4-AF9 inh	ALR inh	HNF4A DNA FP
COc1ccc(S(=O)(=O)N(C)C[C@H]2OCCCC[C@H](C)Oc3ccc(NC(=O)C4CCCCC4)cc3C(=O)N([C@H](C)CO)C[C@@H]2C)cc1
  .	i	.	0.3	4.0	-0.4	-2.6	.	.
C=CCn1nc2ccccc2c1OCCO
  0.673	i	.	11.5	14.0	-5.4	2.9	.	3.2
COc1ccc(/C=C2\SC(=O)N(CCn3cnnn3)C2=O)cc1
  0.69	i	.	6.7	4.8	-1.3	1.1	-0.1	0.8
Cc1ccc(-c2ccc3c(c2)O[C@H](CN(C)Cc2ccc(C(=O)O)cc2)[C@@H](C)CN([C@@H](C)CO)S3(=O)=O)cc1
  .	i	.	-9.4	-16.9	2.8	0.1	.	.
COc1ccc(C/C(C)=N/NC(=O)C2COc3ccccc3O2)cc1 (centres undefined)
  .	.	-2.7%	.	.	.	.	5.1	-2.7
CCC(O)C1CCN(Cc2cn(-c3ccc(OC)cc3)nc2-c2cccc(F)c2)CC1 (centres undefined)
  0.683	i	19.2%	-12.5	-11.0	3.5	4.7	-36.1	0.8
COC(=O)c1ccc(OCC(O)Cn2nnc3ccccc32)cc1 (centres undefined)
  0.577	i	-9.8%	-8.3	-2.8	1.7	3.8	-2.8	3.4

# These rows are one share of the data. The share of hits here may be higher or lower than overall.
